FGF22 binding: binders of human FGF22 protein, primary screen, FGF22 synaptogenesis inhibitor project, biophysical, thermal shift, single point; Fibroblast growth factor 22 (Homo sapiens), Q9HCT0; recombinant FGF22 thermal shift, SYPRO orange fluorescence; percent of sucrose octasulfate shift, DMSO zero; calls only at 9.99 µM; 340,000 tested, 1.5% active; AID 651658, 2012;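 active = melting point raised past a set limit in the mean and every replicate; three in four hits are not shown here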
Target sequence (Q9HCT0 whole entry, looked up): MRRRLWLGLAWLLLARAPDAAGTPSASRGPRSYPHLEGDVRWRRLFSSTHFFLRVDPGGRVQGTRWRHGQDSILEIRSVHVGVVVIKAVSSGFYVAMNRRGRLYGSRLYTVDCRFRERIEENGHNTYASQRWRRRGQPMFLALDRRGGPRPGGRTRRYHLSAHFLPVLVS
HNF4A DNA FP: change in binding of human HNF4A to DNA, primary screen, biochemical, fluorescence polarization, FITC-DNA; 1 h; activity change, % at 10 µM; 360,000 tested, 0.3% active; AID 1224865, 2016; in the data active = activity change above about 30%, passing the limit was not always enough;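 note: controls were the assay level and a saturating level of protein; the project sought stronger binding though the title names inhibitors; some compounds called inactive have numbers as strong as hits; positive values seem to mean higher polarization but the record does not say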
E coli growth: E. coli growth inhibition, primary screen, OD600. OD600 absorbance (no concentration beside the values). AID 1053175, 2014. Escherichia coli growth, 23 h; stronger effect = lower value. 330,000 tested, 0.21% active;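 active = OD600 absorbance below the run mean of sample wells minus 3.6 SD, in any replicate, cut at about 0.56 in these data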;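 note: stock transfer was 300 nL into about 60 µL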
ALR H2O2 inh: inhibitors of human ALR sulfhydryl oxidase, primary screen, biochemical, H2O2 detection, HRP-luminol luminescence, single point. FAD-linked sulfhydryl oxidase ALR (Homo sapiens), P55789. inhibition, % (no concentration beside the values). purified ALR, DTT oxidation. 290,000 tested, 3.8% active;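 active = mean and each replicate at 75% or more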;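 note: stock transfer was 7.5 nL into about 7.5 µL; 0% = neutral wells and 100% = wells with inactivated enzyme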
Target sequence (P55789 whole entry, looked up): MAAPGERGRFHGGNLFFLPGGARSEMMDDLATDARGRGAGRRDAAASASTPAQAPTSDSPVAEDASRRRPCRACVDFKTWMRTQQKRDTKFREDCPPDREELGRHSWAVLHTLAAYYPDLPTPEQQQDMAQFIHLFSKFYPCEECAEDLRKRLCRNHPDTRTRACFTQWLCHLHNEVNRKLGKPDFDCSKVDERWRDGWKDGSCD
UCH37 inh: inhibitors of human UCH37 deubiquitinase, primary screen, biochemical, Ub-AMC cleavage, fluorescence; purified proteasome/UCH37; inhibition, % (concentration not given with the values); Ubiquitin carboxyl-terminal hydrolase isozyme L5 (Homo sapiens), Q9Y5K5; 330,000 tested, 0.33% active;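 active = mean of two replicates above 20%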;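 note: 0% = compound-free wells with enzyme and 100% = wells lacking proteasome; stock transfer was 100 nL into about 20 µL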
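Material: Human UCH37 enzyme supplied as purified proteasome complex | Schedule: 30 min preincubation with enzyme, 25 min cleavage at room temperature | Detection: AMC fluorescence 355/460 nm | Measure: % inhibition of Ub-AMC cleavage fluorescence | Controls: Wells without proteasome as full block, compound-free enzyme plus substrate as uninhibited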
rRNA inh HTS: reduced GFP signal of wild-type E. coli, primary screen, bacterial rRNA inhibitor project, GFP/RFP fluorescence, OD600, single point; E. coli WT GFP vs humanized-ribosome RFP mutants, 24 h; stronger effect = lower value; DMSO median 0, no signal -100; GFP signal change (wild-type ribosome), % (no concentration beside the values); 350,000 tested, 1.6% active;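 active = significant combined selectivity score with lowered wild-type GFP, culture density cut under 30%, mutant RFP and density less affected; inactive = any of these conditions unmet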; note: one replicate is shown; some compounds called inactive have numbers as strong as hits
Beta2AR agonist: beta2AR agonists driving receptor internalization, primary screen, cell-based, FAP fluorogen, flow cytometry; Beta-2 adrenergic receptor (Homo sapiens), P07550; Am2.2-beta2AR cells; reference of the scale not given here; response, % (test concentration not listed); 340,000 tested, 0.43% active;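 active = response above a set limit, near 3 SD of response in nonfluorescent compounds, cut at about 42% in these data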;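 note: stock transfer was 100 nL into about 11 µL; a reference agonist was the positive control; negative values mostly stem from fluorescent compounds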
Target sequence (P07550 whole entry, looked up): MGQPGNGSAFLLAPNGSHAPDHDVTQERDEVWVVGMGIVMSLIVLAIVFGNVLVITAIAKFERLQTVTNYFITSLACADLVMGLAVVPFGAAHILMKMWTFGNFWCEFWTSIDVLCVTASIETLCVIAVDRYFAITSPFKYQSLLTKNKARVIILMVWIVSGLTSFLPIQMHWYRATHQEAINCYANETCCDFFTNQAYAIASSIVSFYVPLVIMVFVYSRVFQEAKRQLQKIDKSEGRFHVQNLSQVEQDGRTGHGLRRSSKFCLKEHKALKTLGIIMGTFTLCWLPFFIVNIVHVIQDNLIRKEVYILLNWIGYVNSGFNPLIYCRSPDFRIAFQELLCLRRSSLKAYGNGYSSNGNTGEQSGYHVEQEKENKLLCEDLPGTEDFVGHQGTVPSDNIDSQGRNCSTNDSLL
rRNA inh HTS OD600: second read-out of rRNA inh HTS, no call of its own (marks repeat the call); OD600 change, %; measured here: OD600 growth;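 optical density of the mix in the first replicate; 0 = DMSO median and -100 = no signal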
rRNA inh HTS RFP: further read-out of rRNA inh HTS, marked with its call; RFP signal change, %; measured here: RFP humanized mutant strains;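 first replicate; 0 = DMSO median and -100 = no signal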
* = called active by the depositor; i = inactive; · = no result given; & = joins results of further samples. The list is partial; count on the stated rates, not on these rows.

SMILES	FGF22 binding	HNF4A DNA FP	E coli growth	ALR H2O2 inh	UCH37 inh	rRNA inh HTS	rRNA inh HTS OD600	rRNA inh HTS RFP	Beta2AR agonist
COc1ccc(N2CCN(CCNC(=O)C3CC(=O)N(C4CCCC4)C3)CC2)cc1 (stereo unspecified)	i	-0.7	0.72	86*	4.0	3	2	-4.3	-1
COc1ccc(NC(=O)c2ccccc2)c([N+](=O)[O-])c1	i	0.3	0.64	-6	0.9	17	4	1.2	7
CC(=O)N1CCN(C(=O)c2ccc(Oc3ccccc3)cc2)CC1	i	-3.3	0.71	0	-1.8	13	8	1.6	-10
COc1ccc(C(=O)N/N=C(\C)CC(=O)Nc2ccc3c(c2)OCO3)cc1	i	-4.7	·	15	·	11	-9	-3.6	6
C[C@@H]1NS(=O)(=O)[C@H]2C[C@@H]3C=C[C@]2(O3)[C@H]1OC(=O)c1ccccc1Br	i	-2.0	·	-2	1.6	-8	-2	-2.2	-3
COc1ccc(-n2c(N)cc(=O)nc2SCC(=O)NC2CCCCC2)cc1	i	-3.4	·	·	·	13	13	-1.8	-4
CCOc1ccc(N(CC(=O)NCc2ccc(F)cc2)C(=O)c2ccco2)cc1	i	0.7	0.69	4	2.4	-3	6	2.3	6
CC(Oc1ccc2ccc(=O)oc2c1)C(=O)NCCN1CCOCC1 (stereo unspecified)	i	0.3	0.7	-4	-22	15	13	-1.1	4
O=C(N/N=C/c1ccccc1Br)c1cccc(S(=O)(=O)N2CCOCC2)c1	i	0.8	·	0	·	2	5	1.7	24
Cc1cccc(NC(=O)CSc2nsc(SCC(=O)Nc3cccc(C)c3)c2C#N)c1	i	-2.5	0.68	-18	2.1	-2	-3	-1.1	-1
CSc1cccc(NC(=O)c2sc3nc4n(c(=O)c3c2C)CCC4)c1	i	0.5	0.65	57	3.3	0	-2	2.5	-1
COc1ccc(/C=N/Nc2nncc3ccccc23)c(OC)c1	·	-2.3	·	18	·	·	·	·	-4
CCOc1c2ccc(C(=O)NCc3ccc(C(F)(F)F)cc3C(F)(F)F)cc2nn1C	i	-0.6	0.72	-6	-16	-5	-7	-1.2	-2
COc1cc(OC)cc(C(=O)Nc2ccc(S(=O)(=O)Nc3cc(C)nc(C)n3)cc2)c1	·	·	0.62	85*	2.4	·	·	·	·
Cc1cc(O)cc2c1C1CCC3(C)C(O)CCC3C1C=C2 (stereo unspecified)	i	-1.3	0.62	·	-2.2	-32	-43	3.5	0
CCOC(=O)CC(=O)CSc1nc2c(c(-c3cccs3)c1C#N)CCC2	·	1.3	0.7	·	-19	·	·	·	7
Cc1cccc(NC(=S)NNc2ncc(C(F)(F)F)cc2Cl)c1	·	-1.3	0.67	8	2.7	·	·	·	2
Cc1c(C=N)c(O)n(C)c(=O)c1C#N	i	-0.5	0.7	-4	20	11	7	0.9	-4
COc1ccc(CNC(=O)c2nn(C)c3c2CS(=O)(=O)c2ccccc2-3)cc1	i	1.7	0.7	-4	2.8	-7	-2	1.8	6
Cn1c(=O)n(C)c2cc(/C=N/NC(N)=S)ccc21	i	-1.5	·	5	·	-10	-9	-9.0	5
O=C(c1ccccc1F)N1CCN(S(=O)(=O)c2ccc(S(=O)(=O)N3CCCCC3)cc2)CC1	i	1.2	0.71	-7	3.9	10	7	0.7	0
Cc1ccc(NC(=O)CN2C(=O)N/C(=C\c3cccnc3)C2=O)cc1	i	0.6	0.69	-1	5.7	16	14	1.6	-1
COc1ccccc1CN1C[C@@H]2C[C@@H](c3[nH]c4ccc(C)cc4c3C)N3CCC[C@@]23C1=O	i	11	0.66	-1	-12	·	·	·	14
CCn1c(SCC(N)=O)nnc1-c1ccc(OC)c(OC)c1	·	-0.9	0.66	-6	1.5	·	·	·	4
CC(=O)c1ccc(OC(C)C)c(CSC(=N)N)c1	i	-1.6	0.72	·	2.9	·	·	·	-6
Cc1c(NC(=O)C(C)OC(=O)CCOc2ccccc2)c(=O)n(-c2ccccc2)n1C (stereo unspecified)	i	0.9	0.68	-7	6.2	5	7	0.1	-3
Cc1cccc(C)c1NC(=O)COC(=O)CCc1ccc(S(=O)(=O)N2CCCCC2)cc1	i	-1.2	0.69	-10	-1.3	5	8	-6.0	-1
COc1ccc(-c2cc(C(=O)Nc3ccc(S(=O)(=O)Nc4onc(C)c4C)cc3)c3ccccc3n2)cc1	i	4.2	0.66	3	-25	-18*	-2.1*	7.3*	-2
COc1ccc(NC(=O)C2CCCN(S(=O)(=O)c3ccccc3)C2)c(OC)c1 (stereo unspecified)	i	-1.4	0.69	-5	0.0	-26	-24	-3.7	-4
O=C(CN1CCN(c2ccccc2)CC1)NCc1ccc(F)cc1	i	6.4	0.67	55	1.0	10	4	-0.3	6
O=C(CN1CCC(NC(=O)Nc2ccccc2)CC1)Nc1cccc([N+](=O)[O-])c1	·	-2.8	0.63	-4	1.4	-9	-3	2.9	-5
O=C(NCc1ccc2c(c1)OCO2)c1nc(S(=O)(=O)Cc2ccccc2)ncc1Cl	i	3.5	·	99*	·	-13	16	-3.7	10
CCC(=O)c1cc(-c2nc3ccccc3n2C)n(C)c1	·	-0.9	0.66	-1	-0.2	·	·	·	-5
Cc1cc(OCC(=O)Nc2cc(C(C)(C)C)on2)ccc1[N+](=O)[O-]	i	1.4	0.73	10	0.0	-8	-7	-2.2	-4
CCCOc1ccc(F)cc1-c1cc(C(=O)Nc2ccc(C(C)C)cc2)[nH]n1	i	1.0	·	·	·	7	24	1.5	·
COC(=O)c1c(-c2c(Cl)cccc2Cl)noc1NC(=O)NN1CCCCC1	i	-1.0	0.68	15	2.1	-8	4	0.7	5
O=C1/C(=C/c2cccnc2)SC(=S)N1CC1CCCO1 (stereo unspecified)	i	0.9	0.69	-6	8.3	10	-2	-2.1	3
Cc1cccc(CN2CCN(CC(=O)NCc3cccs3)C2=O)c1	·	-2.5	0.69	·	1.2	·	·	·	8
CCN(C(=O)COC(=O)c1cccnc1Nc1ccccc1F)C1CCS(=O)(=O)C1 (stereo unspecified)	·	0.2	0.7	·	5.7	·	·	·	3
Cc1sc(NC(=O)/C=C/c2ccco2)c(C(=O)O)c1C	i	-4.0	0.76	7	15	-14	1	3.6	0
COc1ccc(S(=O)(=O)N2CCN(C(=O)CC3CC4CCC3C4)CC2)cc1 (stereo unspecified)	i	0.4	0.7	-1	-0.2	7	11	-1.9	-3
CCOC(=O)c1ccc(N2CSC3=C(C#N)C(c4cccs4)CC(=O)N3C2)cc1 (stereo unspecified)	i	-3.5	0.75	15	4.1	3	9	1.5	-5
O=C(NCCN1CCOCC1)c1cc2cc(Br)ccc2oc1=O	·	-1.4	0.66	-7	3.0	·	·	·	-11
C[C@@H]1CN([C@H](C)CO)C(=O)c2c(c3ccccc3n2C)-c2ccccc2CO[C@H]1CN(C)Cc1ccc(-c2ccccc2)cc1	i	-3.5	·	·	·	12&-2	19&-11	5.2&1.0	·
C/C(O)=C(/C#N)c1nc2ccccc2[nH]1	·	-0.7	·	13	·	·	·	·	-7
COc1ccc(C(=O)C(=NN)c2ccccc2)cc1	i	3.0	·	·	·	2	3	-0.5	·
COc1ccc(CCNc2ccc(C(CC(N)=O)NC(=O)Cc3ccc(Br)cc3)cc2[N+](=O)[O-])cc1 (stereo unspecified)	i	20	0.64	-12	-0.6	11	14	0.7	-4
COC(=O)c1cc(C(=O)OCC(=O)Nc2ccc(N3CCOCC3)cc2)cc([N+](=O)[O-])c1	i	-4.1	0.69	-12	1.1	11	16	-1.6	3
COc1ccc(-c2noc(-c3ccccc3-c3ccccc3)n2)cc1	·	0.8	0.71	-17	-0.1	·	·	·	-3
O=C(CN1CCN(S(=O)(=O)/C=C/c2ccccc2)CC1)NCC(F)(F)F	i	-2.8	0.68	·	1.6	4	14	1.5	13
CC(C)c1ccc2[nH]c3c(c2c1)[C@@H]1CCN2C(=O)CCC[C@H](C3)[C@H]12	i	-3.5	·	13	6.8	-21	-59	1.6	8
O=C(Nc1cccc(-c2nc3ccccc3[nH]2)c1)c1cccc(NC(=O)c2ccco2)c1	·	17	0.71	2	-39	·	·	·	28
CC(C)(C)c1cc(NC(=O)Nc2ccc(Br)cc2Cl)no1	i	1.2	0.75	7	3.7	2	-2	-2.3	1
COC(=O)c1nn(-c2ccccc2)c(-c2ccccc2)c1C(=O)c1ccccc1	·	3.0	0.69	-1	4.9	·	·	·	16
COc1ccc(-n2c(SCC(=O)Nc3cc(C)on3)nc3c([nH]c4ccccc43)c2=O)cc1OC	i	2.6	0.66	-4	-2.9	6	5	0.6	3
Cc1ccc2ncccc2c1NC(=S)NC(=O)c1ccccc1	i	-7.9	0.72	-12	4.1	4	3	17	2
COc1ccccc1-n1cc(-c2ccc(C)cc2)[nH]c1=S	i	2.5	0.63	33	5.8	6	5	2.3	-4
CC(=O)c1cc(CN2CCCCC2)cc(OC(C)C)c1	i	1.7	0.71	-2	5.3	15	9	5.6	-14
O=C(c1ccc(=O)[nH]c1)N(Cc1ccco1)C1(C(=O)NC2CCCC2)CCCCC1	·	-3.6	0.7	-2	-0.2	·	·	·	-1
COc1ccc(C2Oc3ccccc3C3=C2C(c2cccs2)n2ncnc2N3)cc1 (stereo unspecified)	·	0.4	0.73	-3	-1.3	·	·	·	-13

(listing goes on)
SMILES	FGF22 binding	HNF4A DNA FP	E coli growth	ALR H2O2 inh	UCH37 inh	rRNA inh HTS	rRNA inh HTS OD600	rRNA inh HTS RFP	Beta2AR agonist
C=C(C)C1CC=C(C)/C(=N/NC(=O)COc2ccccc2C)C1 (stereo unspecified)	i	4.0	·	24	·	0	-2	-1.7	-29
O=C(NCC1CCCO1)c1ccccc1NS(=O)(=O)c1ccc(Br)s1 (stereo unspecified)	i	2.1	·	·	·	5	9	-3.4	-8
CCOC(=O)N1CCC(NC(=O)c2oc3c(c2C)-c2[nH]ncc2CC3)CC1	·	-1.7	0.68	-28	0.6	·	·	·	2
O=S(=O)(NCCN1CCCC1)c1cccc2cccnc12	i	0.5	·	37	·	8	8	3.5	2
CCN(CC)S(=O)(=O)c1ccc2c(c1)nc(SCc1nc3ccsc3c(=O)[nH]1)n2CC	·	0.3	0.69	·	-1.2	·	·	·	5
C(=N\N1CCN(Cc2cccc3ccccc23)CC1)/c1ccco1	·	0.9	·	-4	·	·	·	·	-4

Printed as active in ALR H2O2 inh, of those listed so far:
Structure	HNF4A DNA FP	ALR H2O2 inh	UCH37 inh	rRNA inh HTS	rRNA inh HTS OD600	rRNA inh HTS RFP	Beta2AR agonist
COc1ccc(N2CCN(CCNC(=O)C3CC(=O)N(C4CCCC4)C3)CC2)cc1 (stereo unspecified)	-0.7	86*	4.0	3	2	-4.3	-1
COc1cc(OC)cc(C(=O)Nc2ccc(S(=O)(=O)Nc3cc(C)nc(C)n3)cc2)c1	·	85*	2.4	·	·	·	·
O=C(NCc1ccc2c(c1)OCO2)c1nc(S(=O)(=O)Cc2ccccc2)ncc1Cl	3.5	99*	·	-13	16	-3.7	10
